Source: PubChem (Fisher Drug Discovery Resource Center)
NPYLR7 agonist – agonists of mosquito NPYLR7 receptor, primary screen, cell-based, Aedes aegypti, calcium fluorescence, mosquito biting behavior; Aedes aegypti neuropeptide Y-like receptor 7 (NPYLR7); HEK293T NPYLR7/Galpha15, GCaMP6s calcium fluorescence; activation, % at 10 µM; actives 0.15% (n = 270,000); in the data active = activation above about 40%;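 also: 0% = vehicle and 100% = reference agonist at the receptor; some compounds past the cut are filed as inactive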
NPYLR7 agonist max-min – also measured in NPYLR7 agonist; calls as there; activation, %; measured here: Max-Min RFU normalised activation; some inactives read as strong as hits;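 span of the calcium signal over five minutes; 0% = vehicle and 100% = native peptide agonist; compound fluorescence can raise it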
Starred values were filed as active, the others as inactive; & = joins results of further samples. The list is partial; rates above refer to the full screens.

SMILES | NPYLR7 agonist | NPYLR7 agonist max-min
COc1ccc2sc(SCc3csc(Cc4ccc(C)cc4)n3)nc2c1 | 1.7 | 0.1
CN1CCOC(CCNC(=O)C(C)(C)NC(=O)c2cccs2)C1 (stereo not drawn) | 0.8 | 1.1
COc1ccc(CCNC(=O)c2cccnc2N2CCN(C(=O)c3cc(F)cc(F)c3F)CC2)cc1OC | 17.0 | 7.8
O=C(Nc1nccs1)c1ccccc1S(=O)(=O)N1CCCCC1 | 0.7 | -0.5
C=CCN(Cc1nc2sc(C)c(C)c2c(=O)[nH]1)CC(O)CN1CCOCC1 (stereo not drawn) | 14.9 | 12.5
CC1CCN(c2ccc(NC(=O)C(C)(C)CCl)cc2C(=O)NCc2ccc(F)cc2)CC1 | -1.4 | 13.9
CSc1nc(=O)cc(N)n1-c1ccc(C)cc1 | 1.7 | 0.3
CCOC(=O)c1ccc(NC(=O)CSc2nc(=O)n(CCCN(C)C)c3c2CCC3)cc1 | -2.3 | -3.3
COC(=O)[C@@H]1C[C@@H](NC(=O)c2cc(-n3cccn3)ccc2Cl)CN1C | 29.3 | 18.3
Cc1cc(=O)oc(C)c1C(=O)NC1CCCCCCC1 | 24.2 | 11.3
COc1ccccc1C1SCC(=O)N1CCN1CCN(C(=O)c2cccc(F)c2)CC1 (stereo not drawn) | 5.9 | 11.3
Cc1nc2c(C)cccn2c(=O)c1NC(=O)Nc1ccc2c(c1)OCO2 | 14.7 | 14.3
N#Cc1ccc(N2CCOC3(CCCC3)C2)nc1 | -0.9 | -7.3
CCOCCCN(CC(=O)N(Cc1cccn1Cc1ccccc1Cl)CC(C)C)S(=O)(=O)/C=C/c1ccccc1 | 8.4 | 18.7
Cn1c(=O)c2c(nc(CN3CCC(Cc4ccccc4)CC3)n2CCN2CCOCC2)n(C)c1=O | 0.4 | 21.6
CCOc1ccccc1C1CC(=O)Nc2c1ccc1c(O)cccc21 (stereo not drawn) | -9.3 | -13.4
CCOC(=O)C1CCN(CC(=O)N2N=C(c3cc(C)ccc3C)CC2c2ccc(C)cc2)CC1 (stereo not drawn) | -10.8 | 6.3
Cc1[nH]ncc1CNC(C(=O)N1CCOCC1)c1ccccc1 (stereo not drawn) | 0.5 | -0.6
CCCn1nccc1C(=O)NC[C@@H]1CCNC[C@H]1O | -3.0 | -9.8
O=C(Oc1coc(CSc2ncccn2)cc1=O)C1CC(=O)N(c2ccc(F)cc2)C1 (stereo not drawn) | -23.0 | -13.4
COC(CNC(=O)C(NC(=O)c1cccs1)C(C)C)c1ccc(Cl)cc1 (stereo not drawn) | 2.3 | 1.2
O=C(c1cccnc1Cl)N1CCN(C/C=C/c2ccccc2)CC1 | -2.0 | -2.8
COc1cccc(CN2CCN(Cc3cccnc3)CC2CCO)c1 (stereo not drawn) | 3.4 | 1.2
COc1cccc(CNC(=O)Cc2c(Cl)cccc2Cl)c1 | -4.2 | -4.9
CCS(=O)(=O)Oc1cc(CN(Cc2ccco2)C(=O)c2ccco2)ccc1OC | 8.9 | 5.9
CCc1ccc(S(=O)(=O)NCCn2nc(-c3ccco3)ccc2=O)cc1 | -1.6 | -3.9
COc1ccc(C(O)(c2ccc(OC)cc2)c2ccc(CN(CCN3CCOCC3)Cc3sccc3C)o2)cc1 | 0.6 | -3.1
Cc1ccccc1-c1ccc(-n2cncc2C(=O)NCCSCc2c(Cl)cccc2Cl)cc1 | 6.2 | 21.9
Cc1ccc(NC(=O)CN2CCC(Nc3ccccc3)C2)cc1Cl (stereo not drawn) | -9.1 | -9.0
O=C(Nc1ccc(Cl)cc1)N1CCN(c2ncccn2)CC1 | 4.3 | 2.0
CN(CCCNC(=O)Nc1ccc(Cl)c(C(F)(F)F)c1)c1ccccc1 | -5.3 | -10.0
CN(C)c1ccc(CNCC2CNc3ccnn3C2)cn1 (stereo not drawn) | 1.8 | -3.3
Cc1cc(C)cc(-n2ncc3c2CCCC3NC(=O)c2cccc3nccnc23)c1 (stereo not drawn) | -1.9 | -5.8
COc1ccc(-c2nc3ccccn3c2NC(=O)CCC2CCCC2)cc1 | -4.7 | 2.8
COc1cccc(C2SCCN2C(=O)c2ccc(-c3ccccc3)cc2)c1OC (stereo not drawn) | -5.1 | -3.6
Cc1cccc(-n2ncc(Oc3cccc(Cl)c3)c(Nc3cccc(C(=O)NCc4ccco4)c3)c2=O)c1 | 9.9 | 11.1
O=C(c1cn[nH]n1)N1CCC(COc2ccc3c(c2)CCC3)CC1 | 5.5 | 1.6
CC1(C)C(c2ccccc2)=NC(c2ccccc2)N1O (stereo not drawn) | -13.1 | -20.4
CCN1CCC(N(C)Cc2csc(CS(C)(=O)=O)n2)CC1C (stereo not drawn) | 20.6 | -4.8
CC1CCCC(NC(=O)CN2c3ccc(S(N)(=O)=O)cc3CC2C)C1C (stereo not drawn) | -6.1 | -7.4
CCOC(=O)Cn1cnc2c(nnn2C)c1=O | -1.0 | 20.4
Cc1nn(C(C)C)c(C)c1Nc1cnc2ccccc2n1 | 1.5 | 910.5
CC(C)=Cc1oc2ccc([N+](=O)[O-])cc2c1N1CC(C)OC(C)C1 (stereo not drawn) | -9.9 | -14.1
O=C(CN(Cc1ccsc1)c1ccccc1)NC(=O)NCC(F)(F)F | -1.0 | 2.5
CCOCCOc1nc(-c2cccc(F)c2)n(-c2ccc(NC(=O)CCC(=O)OCC)cc2)n1 | 23.5 | 33.5
Cc1ccc(S(=O)(=O)C2(C(=O)N3CCC(NC(=O)OC(C)(C)C)CC3)CCC2)cc1 | -0.7 | -1.3
Cc1cc(C)c2[nH]c(C)c(CC(=O)N3CCC(N4CCCC4=O)CC3)c2c1 | -0.6 | -1.7
CCOC(=O)c1nn(-c2ccccc2)c(=O)c2c(NC(=O)c3ccc4ccccc4c3)scc12 | 2.0 | -1.4
CSc1nsc(SC)c1NC(=O)OCC1CCCO1 (stereo not drawn) | 0.1 | -2.1
O=C(Nc1nc2c(s1)CCC2)c1ccccc1OC(F)F | -0.1 | -1.6
COc1ccc(NC(=O)C2CCCCN2Cc2cnc3ccccn23)cn1 (stereo not drawn) | 3.6 | 17.1
O=C(O)c1csc2c1CCCC2 | -1.4 | -2.7
O=C(c1cnn2c(C(F)(F)F)cc(-c3ccc(Br)cc3)nc12)N1CCCC1 | -1.5 | -12.3
CC(C)(CC(=O)O)CC(=O)N1CCC2(CC1)CC(=O)c1ccc3ccccc3c1O2 | -4.5 | -15.3
COc1ccc(C2=NN(c3ccccc3)C(=O)/C2=C\c2ccccc2)cc1 | 1.0 | -2.3
CCCCSCCSc1nnc2n(N)cnn12 | -0.4 | -3.3
COc1cc(F)c(CN2CCN(c3cncc(C(N)=O)n3)CC2)c(F)c1 | 5.2 | 4.0
CCc1ccc(S(=O)(=O)Nc2ccc(-c3ccc(OC)nn3)cc2)cc1 | -1.3 | 12.3
O=C(NCc1cccc(-c2ncc(-c3ccc(F)cc3)[nH]2)c1)c1cccc(Cl)c1Cl | 37.1 | 32.8
Fc1ccc(F)c2c1CCN(c1ncnc3nc[nH]c13)C2 | 4.9 | 2.2

Continued.
SMILES | NPYLR7 agonist | NPYLR7 agonist max-min
CC(C)c1nc2oc3ccccc3c(=O)c2c(=O)n1-c1ccccc1 | 4.1 | 0.5
CCOc1ccccc1-c1nc(CN(C)Cc2nc(-c3ccccc3)no2)c(C)o1 | 12.8 | 6.4
Cc1ccccc1CCC1CCCN(C(=O)c2cc(=O)[nH]c3ccccc23)C1 (stereo not drawn) | -3.4 | -4.2
CC(Nc1ccc(Br)cc1)C(=O)Nc1cccc(Cl)c1Cl (stereo not drawn) | 0.1 | -0.4
CC1CCc2c(C(=O)NCCCC3(C4OCCO4)CCOCC3)csc2C1 (stereo not drawn) | 18.1 | 15.2
Cc1nccc(NCc2ccccc2CS(=O)(=O)NC(C)C)n1 | -1.4 | 0.8
NCC(=O)Nc1ccc(-c2cc3ccccc3o2)cc1F | -0.3 | 12.5
NC1CCCN(c2cnc3ccccc3n2)CC1 (stereo not drawn) | 8.3 | 3.5
C=CCn1c(NCc2ccc3c(c2)OCO3)nc2ccccc21 | 9.4 | 3.8
CCOC(=O)N1CCN(Cc2nc3c(c(=O)n(C)c(=O)n3C)n2Cc2cccc3ccccc23)CC1 | -0.1 | 0.7
COCCNC(=O)C1(C)CCCN(CCSc2ccccc2)C1 (stereo not drawn) | 5.9 | 0.2
Cc1ccc(N2C(=O)C(c3c(C)[nH]n(C(C)(C)C)c3=O)=C(N3CCC(C)CC3)C2=O)cc1 | 23.3 | 34.6
CCOC(=O)c1c(N)sc2c1C1CCN2CC1 | 28.7 | 24.7
COc1cccc(CN(Cc2ccc(F)cc2)CC(O)COc2ccccc2)c1 (stereo not drawn) | 38.8 | 36.6
O=C1OC(c2ccccc2Cl)=N/C1=C\C=C\c1ccccc1 | -3.7 | -8.0
CN(Cc1ccccc1)CC(O)Cn1cnc2sccc2c1=O (stereo not drawn) | 1.6 | 0.7
Cc1nc(N2CCC(C)CC2)ncc1-c1cc(=O)[nH]c(N2CCN(C)CC2)n1 | 2.4 | -0.1
CC(C)(C)Cc1nnc(C2CCCN(C(=O)C3CCCC3)C2)o1 (stereo not drawn) | -6.0 | 0.5
Cc1nnc(NC(=O)/C=C/c2cccc([N+](=O)[O-])c2)s1 | 3.2 | 0.5
COCCn1c(=NC(=O)c2nc3ccccc3s2)sc2ccccc21 | 1.3 | -0.6
CC1CCc2c(sc3nc(CN(C)C)[nH]c(=O)c23)C1 (stereo not drawn) | -3.9 | -9.4
CCOc1ccc(C2=NOC(C)C(=O)N2Cc2cccc(F)c2)cc1 (stereo not drawn) | 6.6 | 4.5
COCCN(Cc1ccc(C)cc1)CC1CCCN(C2Cc3ccccc3C2)C1 (stereo not drawn) | -6.8 | -9.8
C=C(C)Cn1c(=O)c2c(nc3n(CCO)c(C)cn23)n(C)c1=O | -7.3 | -9.6
O=C1CC(c2ccccc2)Cc2nc3nc(-c4ccccc4)nn3cc21 (stereo not drawn) | 1.1 | 0.0
CCc1cnc2c(c1NCCCN(C)C)c(=O)n(C)c(=O)n2C | 9.2 | 6.6
O=C(Cc1csc(-c2ccsc2)n1)NCC1CCCCC1 | 7.2 | 6.5
Cc1c(F)cccc1N1C(=O)CSC1c1ccccc1NC(=O)c1ccc(F)cc1 (stereo not drawn) | -0.4 | -1.0
Cc1ccc(CN(Cc2ccc(F)cc2)C(=O)CN(CCN2CCCC2)C(=O)CCc2ccccc2)s1 | 4.3 | 14.2
O=C(c1ccc(F)cc1)N(CCN1CCOCC1)Cc1nccn1Cc1ccccc1C(F)(F)F | 6.0 | 13.8
Cc1ccnc(NC(=O)Cc2ccc(NC(=O)OC(C)(C)C)cc2)c1 | 3.1 | 0.1
Cc1cc(C)c(NC(=O)C2CCCN2CCOC(=O)c2cccc([N+](=O)[O-])c2)c(C)c1 (stereo not drawn) | -4.6 | -5.6
CC(c1nccs1)N(C)Cc1cn(Cc2ccccc2)nc1-c1cc2ccccc2o1 (stereo not drawn) | 16.5&-2.6 | 11.4&-6.1
CSc1cccc(CN2CCC(n3nccc3NC(=O)Cc3ccccc3)CC2)c1 | 8.9&-7.7 | 5.2&-9.8
CCOC(=O)N1CCC(NC2CC(=O)N(c3cccc(OC)c3)C2)CC1 (stereo not drawn) | 8.0 | 6.5
CC(=O)Nc1ccc(C(=O)N2CCN(Cc3ccsc3)CC2)cc1 | 0.4 | 0.7
CS(=O)(=O)c1ccc2nc(NC(=O)COc3ccc(Cl)cc3Cl)sc2c1 | -4.7 | -5.5
C[C@H](O)CNC(=O)c1cc(Cn2ccc3ccccc32)[nH]n1 | 27.8 | 18.1
Cc1cc(C)c(Cn2ccnc2CN(Cc2cccnc2)C(=O)c2ccc(Cl)cc2)c(C)c1 | 24.8 | 32.6
CC(=O)NC1C(=O)n2ccnc2C(C(=O)c2ccccc2)C1c1ccccc1 (stereo not drawn) | -2.5 | -3.1
Cc1cc(=O)c(C(=O)OCC(=O)N2CCCC2=O)nn1-c1ccc(Cl)cc1 | 4.4 | 1.8
O=C(NCCn1ncccc1=O)c1ccccc1C(F)(F)F | 2.1 | 1.6
COc1cccc(C(=O)NCC(=O)N=Nc2c(O)[nH]c3ccccc23)c1 | -6.8 | -12.1
CCCCCCCCCCCCCc1ccco1 | -8.5 | -12.3
CC(C)c1nc(NC(=O)CS(=O)(=O)C2CCCC2)n(C)n1 | 2.5 | 1.5

14 of these compounds, reformatted.
The line under a structure holds: NPYLR7 agonist | NPYLR7 agonist max-min
Cc1cc(C)c(NC(=O)C2CCCN2CCOC(=O)c2cccc([N+](=O)[O-])c2)c(C)c1 (stereo not drawn)
→ -4.6 | -5.6
CC(c1nccs1)N(C)Cc1cn(Cc2ccccc2)nc1-c1cc2ccccc2o1 (stereo not drawn)
→ 16.5&-2.6 | 11.4&-6.1
CSc1cccc(CN2CCC(n3nccc3NC(=O)Cc3ccccc3)CC2)c1
→ 8.9&-7.7 | 5.2&-9.8
CCOC(=O)N1CCC(NC2CC(=O)N(c3cccc(OC)c3)C2)CC1 (stereo not drawn)
→ 8.0 | 6.5
CC(=O)Nc1ccc(C(=O)N2CCN(Cc3ccsc3)CC2)cc1
→ 0.4 | 0.7
CS(=O)(=O)c1ccc2nc(NC(=O)COc3ccc(Cl)cc3Cl)sc2c1
→ -4.7 | -5.5
C[C@H](O)CNC(=O)c1cc(Cn2ccc3ccccc32)[nH]n1
→ 27.8 | 18.1
Cc1cc(C)c(Cn2ccnc2CN(Cc2cccnc2)C(=O)c2ccc(Cl)cc2)c(C)c1
→ 24.8 | 32.6
CC(=O)NC1C(=O)n2ccnc2C(C(=O)c2ccccc2)C1c1ccccc1 (stereo not drawn)
→ -2.5 | -3.1
Cc1cc(=O)c(C(=O)OCC(=O)N2CCCC2=O)nn1-c1ccc(Cl)cc1
→ 4.4 | 1.8
O=C(NCCn1ncccc1=O)c1ccccc1C(F)(F)F
→ 2.1 | 1.6
COc1cccc(C(=O)NCC(=O)N=Nc2c(O)[nH]c3ccccc23)c1
→ -6.8 | -12.1
CCCCCCCCCCCCCc1ccco1
→ -8.5 | -12.3
CC(C)c1nc(NC(=O)CS(=O)(=O)C2CCCC2)n(C)n1
→ 2.5 | 1.5
